Bioassay records as filed in PubChem BioAssay.
miR-21 reporter = raises the signal of a miR-21 reporter. 340,000 tested, under 10 active. AID 2288. HeLa miR-21 FLuc reporter, luciferase, 48 h. Potency, µM (highest dose often 38.3 µM), for the others: at the top dose reporter change, positive = more light; active = well fitted rising curve with a large enough effect; inconclusive = small, poorly fitted or top-dose-only effect; inactive = no such curve, though single readings can be large or run the other way;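 further: % of control where 0% means no effect; miR-21 action dims this reporter so a rising signal means less miR-21 action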
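HeLa cells endogenously expressing miR-21, stably carrying CMV-driven firefly luciferase with a downstream miR-21 binding site, 2000 cells/well. Titrations up to approximately 40 uM, 48 hours; luciferase luminescence read.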
GLA inh pH 4.5 = blocks human alpha-galactosidase A at pH 4.5. 230,000 tested, under 10 active. purified enzyme, 4-MU-alpha-Gal fluorescence, pH 4.5. activity change, negative = inhibition, % at 105 µM. P06280; inconclusive = small, poorly fitted or top-dose-only inhibition, or a rising curve; inactive = flat fitted curve, though single readings scatter; no compound was filed as active;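 further: 0% = full activity with enzyme and -100% = basal without enzyme; dose as in the result columns while the protocol names 77 µM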
Rango release inh = inhibitors of RanGTP-induced Rango-importin beta complex dissociation; hit rate 0.071% among 340,000; O95149+P62826; Biochemical FRET Rango-importin beta, RanGTP-induced dissociation; Potency, µM (top dose mostly 46.1 µM), without a hit: at the highest dose activity change, negative = inhibition; AID 540253; active means falling FRET ratio curve, often poorly fitted, with flat reads before Ran was added; inconclusive means other falling curves, or compound fluorescence or quenching; inactive means flat or rising ratio curve;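 further: potency means the concentration at half of the fitted maximal effect; % of control where 0% means no effect; nearly all actives have a fitted effect of over 45% in size; -100% = wells without RanGTP and RCC1; the record marks most hits as doubtful in a second field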
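Recombinant Rango FRET biosensor (EYFP–snurportin 1 IBB–cerulean CFP10) at 0.1 uM premixed with 0.25 uM importin beta in PBS, 1 mM DTT, 0.02% Tween-20, 0.1% BSA. Compound added 5 min; RanGTP-RCC1 (0.6 uM Ran, 2 mM GTP, 0.2 uM RCC1) then triggers release, read at 45 min.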
Rango-impB inh = prevents formation of the Rango-importin beta complex | Rango CFP/YFP FRET sensor + importin beta, 45 min | Potency, µM (highest dose often 92.2 µM), without a hit: top-dose inhibition of complex formation | hit rate 0.031% among 340,000 | AID 540263; active = rising FRET ratio curve, often small or poorly fitted; inconclusive = mostly compound fluorescence or quenching in the first reads; inactive = flat curves in all reads;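 further: potency means the concentration at half of the fitted maximal effect; 0% = DMSO wells and 100% = buffer wells lacking importin beta; nearly all actives have a fitted effect of over 15% in size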
Target sequence (Q14974 whole entry, looked up): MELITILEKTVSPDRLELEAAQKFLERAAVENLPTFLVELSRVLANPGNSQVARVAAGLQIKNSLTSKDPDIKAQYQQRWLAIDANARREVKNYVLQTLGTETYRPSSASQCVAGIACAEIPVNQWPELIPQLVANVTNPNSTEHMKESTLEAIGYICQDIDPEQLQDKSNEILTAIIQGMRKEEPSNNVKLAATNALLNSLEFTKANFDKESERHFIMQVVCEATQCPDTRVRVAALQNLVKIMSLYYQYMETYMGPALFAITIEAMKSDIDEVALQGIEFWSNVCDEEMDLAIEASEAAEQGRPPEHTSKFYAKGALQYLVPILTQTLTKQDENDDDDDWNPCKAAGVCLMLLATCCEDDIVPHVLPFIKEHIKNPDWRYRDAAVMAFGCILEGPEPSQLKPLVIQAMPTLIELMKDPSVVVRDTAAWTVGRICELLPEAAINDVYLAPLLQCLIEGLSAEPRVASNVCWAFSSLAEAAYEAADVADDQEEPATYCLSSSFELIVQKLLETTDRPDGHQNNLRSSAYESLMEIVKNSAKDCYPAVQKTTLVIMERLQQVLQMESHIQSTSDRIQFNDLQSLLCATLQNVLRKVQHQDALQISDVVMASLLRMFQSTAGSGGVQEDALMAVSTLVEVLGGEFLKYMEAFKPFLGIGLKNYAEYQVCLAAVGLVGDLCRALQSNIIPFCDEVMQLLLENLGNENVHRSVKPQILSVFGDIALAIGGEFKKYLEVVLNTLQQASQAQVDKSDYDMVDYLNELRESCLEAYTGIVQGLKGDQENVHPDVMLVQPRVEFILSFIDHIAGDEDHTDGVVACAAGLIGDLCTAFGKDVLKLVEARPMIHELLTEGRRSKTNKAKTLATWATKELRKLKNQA
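FRET biosensor (snurportin 1 IBB flanked by EYFP and cerulean), 50 nM, with compound 5 min, then 0.125 microM importin beta in PBS, 1 mM DTT, 0.02% Tween-20, 0.1% BSA. CFP/YFP ratio read after 45 min at room temperature; pre-read flags interference.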
The depositor's hits bear a star; ? = inconclusive; . = no result given; [ ] = remark or other dose.

1. O=C(O)CSc1nc2ccccc2[nH]1
2. Cc1cc(NC(=O)CS(=O)(=O)c2ccc(Cl)cc2)no1
3. CCOC(=O)CSc1nc2ccccc2c(=O)n1CC1CCCC1
4. Cc1cc(C)c(S(=O)(=O)N2CCN(CCN3C(=O)c4cccc5cccc(c45)C3=O)CC2)cc1[N+](=O)[O-]
5. O=C(NN=C1CCCC1)c1ccc(O)cc1
Assay by compound	1	2	3	4	5
miR-21 reporter	-1.1%	-0.7%	-3.7%	-18.3%	-42.5%
GLA inh pH 4.5	8.0	.	-4.1	0.8	.
Rango release inh	-2.7%	1.0%	19.0%	.	-11.4%
Rango-impB inh	4.0%	0.8%	-0.2%	.	-1.3%

6. CC(C)NS(=O)(=O)c1ccc(OCC(=O)NCc2ccc3c(c2)OCO3)c(Cl)c1
7. COc1ccc(S(=O)(=O)N2CCC(O)(c3ccc4c(c3)OCO4)CC2)cc1
8. Cc1ccc(C(=O)N/C(=C/c2cccc([N+](=O)[O-])c2)C(=O)NC(C)C)cc1
9. CCOC(=O)c1cn(CC(=O)Nc2ccccc2C(=O)OCC)nn1
10. O=C(O)c1nccnc1C(=O)NCCc1c[nH]c2ccccc12
Assay by compound	6	7	8	9	10
miR-21 reporter	-6.1%	-1.7%	-0.2%	-6.0%	0.6%
GLA inh pH 4.5	-10.9	3.1	7.0	20.9	4.5
Rango release inh	0.6%	2.1%	-9.8%	-13.1%	-12.2%
Rango-impB inh	0.4%	-2.5%	-3.3%	1.4%	3.1%

Compounds above that have a COOH group, in the order listed:
1. O=C(O)CSc1nc2ccccc2[nH]1
10. O=C(O)c1nccnc1C(=O)NCCc1c[nH]c2ccccc12
Assay by compound	1	10
miR-21 reporter	-1.1%	0.6%
GLA inh pH 4.5	8.0	4.5
Rango release inh	-2.7%	-12.2%
Rango-impB inh	4.0%	3.1%

Continued:
11. COC(=O)c1ccc(CNC(=O)[C@@H]2CCCN2S(=O)(=O)c2ccccc2F)cc1
12. Cc1c(NC(=O)c2cc(-c3cccc(Cl)c3)on2)c(=O)n(-c2ccccc2)n1C
13. CC(=O)OCC(=O)[C@@]1(O)CC[C@H]2[C@@H]3CCC4=CC(=O)C=C[C@]4(C)[C@H]3[C@@H](O)C[C@@]21C
14. COc1ccc(COc2cccc3ccc(C)nc23)cc1F
15. Cc1ccccc1-n1cnnc1SCC(=O)N1CCN(c2ccccc2)CC1
Assay by compound	11	12	13	14	15
miR-21 reporter	.	?	-28.7%	-8.9%	-3.9%
GLA inh pH 4.5	.	.	-0.5	.	-26.9
Rango release inh	0.9%	9.4%	-4.0%	19.9%	4.0%
Rango-impB inh	2.2%	1.9%	3.1%	7.7%	-0.9%

16. c1ccc(-c2nc(-c3cccnc3)n[nH]2)cc1
17. CN1CCN(CC(=O)N2c3ccc(S(=O)(=O)NCCNC(=O)OC(C)(C)C)cc3C(=O)Nc3cccnc32)CC1
18. COc1ccc(C(=O)OCc2c(-c3ccccc3)ncc3ccccc23)cc1
19. Cc1ccc(N2CCN(C(=O)c3ccccc3NC(=O)C3CCCCC3C(=O)O)CC2)cc1 (centres undefined)
20. ClC1(CNc2ccccc2)CCN(Cc2ccccc2)CC1
Assay by compound	16	17	18	19	20
miR-21 reporter	-47.5%	.	.	-5.7%	.
GLA inh pH 4.5	2.2	.	.	-13.6	.
Rango release inh	.	1.7%	-2.9%	?	9.8%
Rango-impB inh	.	-0.2%	1.1%	-3.4%	-4.3%

21. Cc1cccc(C(=O)N/N=C/c2ccccn2)c1
22. COc1ccc(C(=O)NCc2nnc(SCC(=O)N3CCCCCC3)o2)cc1OC
23. Cc1ccc(NC(=O)CSc2nnc([C@@H]3CCCN3C(=O)OC(C)(C)C)o2)c(C)c1
24. Cc1cccc(-n2nnnc2SCC(=O)Nc2ccc(N3CCN(C)CC3)cc2)c1
25. O=C(NCc1cccs1)C1CCCN(S(=O)(=O)c2cccc3cccnc23)C1 (centres undefined)
Assay by compound	21	22	23	24	25
miR-21 reporter	-41.6%	-1.0%	11.3%	6.0%	2.0%
GLA inh pH 4.5	1.5	.	8.3	.	-7.1
Rango release inh	9.0%	1.1%	-11.1%	14.1%	12.6%
Rango-impB inh	-2.5%	-0.2%	-1.6%	-0.8%	-3.3%

26. COc1cc2oc3ccc(C#Cc4ccccn4)cc3c(=O)c2cc1OC
27. Cn1nnc2cc(NC(=O)N3CC4(C)CC3CC(C)(C)C4)ccc21 (centres undefined)
28. O=C(O)c1ccc(N2C(=O)c3cccc4c(C(=O)O)ccc(c34)C2=O)cc1
29. COc1ccc(N(CC(=O)NC2CCCC2)C(=O)c2ccc(C)s2)cc1OC
30. Cc1ccc(C)n1-c1nnc(N2CCC(C(=O)N3CCN(C)CC3)CC2)s1
Assay by compound	26	27	28	29	30
miR-21 reporter	.	-9.3%	-0.3%	-2.1%	0.1%
GLA inh pH 4.5	.	4.2	-11.9	.	.
Rango release inh	7.5%	0.7%	15.8%	8.0%	-3.5%
Rango-impB inh	0.7%	2.8%	1.8%	0.4%	0.9%

31. CCc1ccc(N2C(=O)CN(Cc3ccc(OC)c(OC)c3)C2=S)cc1
32. CSCCC(NS(=O)(=O)c1cccs1)C(=O)NCc1cccs1 (centres undefined)
33. O=C(NC1CSCC1OC(=O)c1ccccc1)c1ccccc1 (centres undefined)
34. O=[N+]([O-])c1ccc(CN2CCCCCC2)cc1
35. Cc1csc(=O)n1CC(=O)OCC(=O)c1ccc(Br)cc1
Assay by compound	31	32	33	34	35
miR-21 reporter	-11.8%	0.9%	-3.5%	-0.4%	.
GLA inh pH 4.5	-6.7	-0.8	5.3	.	.
Rango release inh	1.6%	1.3%	-2.4%	-11.4%	-10.1%
Rango-impB inh	4.5%	-1.9%	-2.1%	-0.6%	0.2%

36. COCCNC(=O)CSc1nnc(-c2ccccc2)c(-c2ccccc2)n1
37. CC(C)(C)CC(=O)OCC(=O)Nc1cc(C(C)(C)C)nn1-c1ccccc1
38. CCCc1c(C(=O)OCC)[nH]c2c1C(=O)CCC2
39. S=C(NCC1CCCO1)N1CCN(Cc2ccccc2)CC1 (centres undefined)
40. COC(=O)c1ccccc1NC(=O)N[C@@H](C)C(=O)OC
Assay by compound	36	37	38	39	40
miR-21 reporter	-4.2%	4.8%	4.6%	-7.5%	5.7%
GLA inh pH 4.5	0.1	-2.2	-1.7	3.0	-2.3
Rango release inh	17.3%	-4.3%	0.8%	6.4%	0.4%
Rango-impB inh	4.1%	-0.5%	3.3%	0.4%	-3.4%

41. O=C(Cc1ccsc1)NNC(=O)c1ccc(F)cc1
42. COc1ccc([N+](=O)[O-])cc1NCC(=O)Nc1cc(S(=O)(=O)N2CCCCC2)ccc1C
43. CCCCc1ccc(-c2nc(N)n[nH]2)cc1
44. Cc1c(C(=O)NN2CCOCC2)oc2ccccc12
45. CCN(CC)c1ccc(S(=O)(=O)N2CCOCC2)cc1NC(=O)CSc1cccc[n+]1[O-]
Assay by compound	41	42	43	44	45
miR-21 reporter	.	.	-40.9%	-10.1%	3.9%
GLA inh pH 4.5	.	.	6.3	7.4	-2.1
Rango release inh	6.1%	14.0%	16.6%	0.8%	-9.3%
Rango-impB inh	-1.5%	1.7%	-4.9%	-0.3%	-1.7%

46. O=C(OCC(=O)N1c2ccccc2Sc2ccccc21)c1ccc[n+]([O-])c1
47. Cc1ccc(OCC(=O)Nc2cc(NC(=O)COc3ccc(C)c(C)c3)cc(C(=O)O)c2)cc1C
48. Cc1noc(C)c1-c1nnc(-c2ccc(OC(F)(F)F)cc2)o1
49. O=C(CSc1nnnn1C1CCCC1)c1ccc2c(c1)OCCO2
50. Cc1cccc(NS(=O)(=O)c2cc(C(=O)N3CCN(C)CC3)ccc2C)c1
Assay by compound	46	47	48	49	50
miR-21 reporter	-1.6%	0.9%	-8.1%	-59.5%	-5.4%
GLA inh pH 4.5	5.4	.	0.9	-3.7	6.3
Rango release inh	0.2%	30.9%	0.1%	14.0%	-4.5%
Rango-impB inh	3.2%	0.0%	0.8%	-0.2%	2.7%

51. COc1cccc(C(=O)COc2ccc3c(C)cc(=O)oc3c2)c1
52. Cc1ccc(S(=O)(=O)NCCC(=O)NCc2cccnc2)cc1
53. Cc1cc(OC(C)C(=O)Nc2ccncc2)ccc1Cl (centres undefined)
54. CCC(c1nnc(SCC(=O)Nc2cccnc2Cl)n1-c1ccccc1)N(C)C (centres undefined)
55. COc1ccc(N/C=C2\CCc3ccccc3C2=O)cc1
Assay by compound	51	52	53	54	55
miR-21 reporter	17.1%	-1.6%	25.2%	-9.1%	19.7%
GLA inh pH 4.5	.	.	.	-1.1	2.5
Rango release inh	0.4%	9.4%	-3.0%	7.1%	?
Rango-impB inh	-1.2%	-1.8%	-2.5%	0.4%	?

In the list so far, 4 contain fluorine.
11. COC(=O)c1ccc(CNC(=O)[C@@H]2CCCN2S(=O)(=O)c2ccccc2F)cc1
14. COc1ccc(COc2cccc3ccc(C)nc23)cc1F
41. O=C(Cc1ccsc1)NNC(=O)c1ccc(F)cc1
48. Cc1noc(C)c1-c1nnc(-c2ccc(OC(F)(F)F)cc2)o1
Assay by compound	11	14	41	48
miR-21 reporter	.	-8.9%	.	-8.1%
GLA inh pH 4.5	.	.	.	0.9
Rango release inh	0.9%	19.9%	6.1%	0.1%
Rango-impB inh	2.2%	7.7%	-1.5%	0.8%

The list continues:
56. COCCn1nnnc1C(C(C)C)N1CCSCC1 (centres undefined)
57. COc1ccc(C(=O)Cc2ccc3c(c2)OCO3)c(O)c1
58. COc1cccc(-n2ccnc2SCC(=O)Nc2ccccc2F)c1
59. Cc1ccc(NC(=O)Nc2cnc3ccccc3c2)cc1
60. COC(=O)C1(S(=O)(=O)c2cc(Br)cc3c2N(C(C)=O)CC3)CC1
Assay by compound	56	57	58	59	60
miR-21 reporter	-2.9%	-50.0%	-13.6%	-55.0%	-0.3%
GLA inh pH 4.5	-4.7	3.2	-14.3[21.1 µM]	6.8	0.7
Rango release inh	0.3%	-13.4%	9.6%	3.0%	7.1%
Rango-impB inh	0.0%	-0.7%	-2.6%	3.9%	-1.9%

61. Cc1cccc(N2CCN(C(=O)CCNS(=O)(=O)c3cccs3)CC2C)c1 (centres undefined)
62. CC1=NN(/C(=N\c2nnc(C)s2)Nc2ccc(C)cc2)[C@H](c2ccc(C)cc2)S1
63. Cc1ccc2cc(C)c(Sc3nnnn3-c3ccccc3)nc2c1
64. C=CCn1c(SCC(=O)Nc2ccc(OC)cc2)nc2c([nH]c3ccccc32)c1=O
65. CCc1cc(=O)oc2c(C)c(O[C@@H]3O[C@H](CO)[C@@H](O)[C@H](O)[C@H]3O)ccc12
Assay by compound	61	62	63	64	65
miR-21 reporter	-13.5%	-11.4%	-0.2%	2.8%	8.3%
GLA inh pH 4.5	.	-7.0	2.4	.	.
Rango release inh	-8.6%	-8.8%	-2.1%	1.8%	-11.8%
Rango-impB inh	-2.9%	-2.3%	-0.2%	5.4%	-2.7%

66. CN(CCOc1ccc(F)cc1)Cc1ccccc1
67. CCOc1ccccc1-n1c(CN2CCN(C(=O)c3ccco3)CC2)nc2ccccc2c1=O
68. CN(C)S(=O)(=O)c1ccc(C(=O)NCCN2C(=O)S/C(=C\c3cccnc3)C2=O)cc1
69. Cc1ccc(/C=N/Nc2ccc(F)cc2F)s1
70. CC(=O)Nc1cc(-c2ccc(Cl)cc2)nn1-c1ccccc1
71. O=C(COc1ccc(S(=O)(=O)N2CCCCC2)cc1)N1CCOCC1
72. Cc1[nH]c2ccccc2c1/C=C(\C#N)S(=O)(=O)c1ccccc1
Assay by compound	66	67	68	69	70	71	72
miR-21 reporter	-2.3%	-12.4%	-9.4%	-57.8%	-25.6%	-3.7%	-3.5%
GLA inh pH 4.5	.	-0.2	8.8	.	-6.1	.	-0.9
Rango release inh	9.8%	-10.1%	28.9%	13.3%	0.2%	0.1%	-12.5%
Rango-impB inh	0.1%	-2.0%	0.6%	4.7%	2.3%	0.0%	-0.2%

Not all compounds are listed; rates above refer to the full screens.
